gsp agonist: activates gsp, the McCune-Albright syndrome mutation; gsp mutant cells, cAMP HTRF, 30 min; control for the full effect not named in the record; Potency, µM (titrated, usually from 76.9 µM), without a hit: top-dose activation (cAMP increase), usual class: activators; 340,000 compounds, 0.13% hits; AID 624287; active = well fitted activation curve with a large enough effect; inconclusive = small, poorly fitted or top-dose-only effect, or another doubt; inactive = no such curve, though single readings can be large or run the other way; cell line not stated here;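 note: phosphodiesterase inhibitor Ro 20-1724 added with compounds to block cAMP breakdown; potency is the fitted concentration of half-maximal effect; nearly all actives have a fitted effect of over 60% in size; about a fifth of the inactives were tested at one dose only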
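Cells stably selected in G418 were plated at 2000/well, grown 16-24 hr, then given compounds in DMSO with the PDE inhibitor […] (300 uM solution added) for 30 min at 37C; cAMP was read by HTRF.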
D2 ag: human D2 receptor agonism in beta-arrestin assay | DiscoveRx PathHunter D2 beta-arrestin, luminescence, 90 min; 100% = 57 uM dopamine signal | activation, % (no concentration beside the values) | 360,000 compounds, 0.084% hits | AID 624465; in the data active = activation above about 40%; inconclusive = about 15% to 40%; inactive = below about 15%; note: compound concentration not given in the record; the text of the record calls up to 30% inactive
Target sequence (P14416 whole entry, looked up): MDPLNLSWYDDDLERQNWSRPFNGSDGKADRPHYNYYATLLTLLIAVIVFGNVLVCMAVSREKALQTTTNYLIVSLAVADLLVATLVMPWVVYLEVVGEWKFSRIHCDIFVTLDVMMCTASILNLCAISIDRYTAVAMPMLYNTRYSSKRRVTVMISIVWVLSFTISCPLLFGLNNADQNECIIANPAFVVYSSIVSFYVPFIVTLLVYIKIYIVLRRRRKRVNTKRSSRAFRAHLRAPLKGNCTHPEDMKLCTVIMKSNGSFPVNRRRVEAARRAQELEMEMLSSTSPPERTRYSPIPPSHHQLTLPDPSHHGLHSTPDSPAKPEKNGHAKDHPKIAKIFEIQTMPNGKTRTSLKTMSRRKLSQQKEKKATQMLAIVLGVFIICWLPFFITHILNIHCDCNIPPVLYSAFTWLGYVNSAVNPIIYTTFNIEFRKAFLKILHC
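DiscoveRx PathHunter D2 beta-arrestin cells (2,100/well) attached overnight, then compound-stimulated 90 min at 37 C in HBSS/10 mM HEPES/0.1% Tween-20 buffer; beta-galactosidase complementation read by luminescence after 1 h at ambient temperature. Dopamine 57 uM final (EC100) as control.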
gsp antag: antagonizes gsp, the McCune-Albright syndrome mutation | AID 624288 | gsp-mutant cells, cAMP HTRF, 30 min; control for the full effect not named in the record | Potency, µM (titrated, usually from 76.9 µM), without a hit: top-dose activity change, negative = inhibition, usual class: inhibitors | 340,000 compounds, 0.4% hits; active = falling curve of any shape with a large fitted effect; inconclusive = falling curve, mostly with a smaller effect; inactive = flat or rising curve; cell line not stated here;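 note: intracellular cAMP measured with PDE inhibitor Ro 20-1724 present during compound exposure; potency is the fitted concentration of half-maximal effect; % is set by controls: 0 for no effect and ±100 for the full control effect; nearly all actives have a fitted effect of over 65% in size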
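HTRF cAMP read-out (cAMP-d2 plus anti-cAMP antibody-K in lysis buffer, 30 min RT). Before lysis, cells are exposed to compounds with […] for 30 min at 37C in DPBS containing Ca/Mg, BSA and Tween 20.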
Menin MLL FP FL: menin-MLL binding inhibition, fluorescein peptide. Fluorescence polarization, fluorescein-MLL peptide displacement from menin. FP activity change, % at 61.4 µM. 290,000 tested, under 10 active; inconclusive = falling polarisation curve, or a change in total fluorescence; inactive = total fluorescence flat and polarisation flat or rising; no compound was filed as active; the % refers to the polarisation; negative = inhibition;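 note: % of control where 0% means no effect; inhibitors lower the polarisation; unlabelled MLL peptide was the positive control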
ClpP mod: qHTS Assay for Activators of ClpP; ATP-dependent Clp protease proteolytic subunit (Bacillus subtilis (strain 168)), P80244; purified B. subtilis ClpP, FRET peptide cleavage, 20 min; Potency, µM (titrated, usually from 57.5 µM), inactives show at the top dose activity change, negative = active; 340,000 compounds, 1.9% hits; AID 651965, 2013; active = well fitted falling curve with a large enough effect; inconclusive = small, poorly fitted or top-dose-only effect; inactive = no such curve, though single readings can be large or run the other way; note: potency is the fitted concentration of half-maximal effect; the source files actives as falling curves though it sought activators and does not explain the sign; nearly all actives have a fitted effect of over 65% in size; many hits overshoot -100%
Target sequence (P80244 whole entry, looked up): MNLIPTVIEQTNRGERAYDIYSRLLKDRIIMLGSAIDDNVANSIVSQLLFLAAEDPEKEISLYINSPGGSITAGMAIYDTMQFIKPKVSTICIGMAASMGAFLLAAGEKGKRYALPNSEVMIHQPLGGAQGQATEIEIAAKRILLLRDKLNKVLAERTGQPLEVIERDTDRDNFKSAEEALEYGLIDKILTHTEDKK
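Purified B. subtilis ClpP, 10 microg/mL final in Tris/HCl pH8 with KCl, BSA, glycerol and Tween-20, cleaved an Abz/nitrotyrosine-quenched decapeptide. Fluorescence (ex 320, em 430) was read at 0 and 20 min at room temperature. Delta was normalized to 5.8 microM ADEP and DMSO/no-enzyme controls.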
PINK1 expr mod: PINK1 expression modulation; PINK1 immunofluorescence, high-content cytometry, 24 h; Potency, µM (top dose mostly 76.6 µM), without a hit: top-dose activation (PINK1 increase), actives largely listed as activators; 410,000 compounds, 0.2% hits; AID 624263; active = well fitted activation curve with a large enough effect; inconclusive = small, poorly fitted or top-dose-only effect; inactive = flat fitted curve, though single readings scatter; cell line not stated here;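 note: potency is the fitted concentration of half-maximal effect; % of control where 0% means no effect; nearly all actives have a fitted effect of over 65% in size; a mitochondrial uncoupler was the plate control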
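Stable cell line treated 24 h with compounds at 5 concentrations (CCCP controls), then fixed and immunostained for PINK1 plus nuclear and cell stains; PINK1 immunofluorescence quantified by laser-scanning microplate cytometry.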
Sfp PPTase inh: inhibitors of Bacillus subtilis Sfp phosphopantetheinyl transferase | 310,000 compounds, 3.5% hits | Q9F4F7 | Biochemical Sfp PPTase activity, qHTS | Potency, µM, for the others: max response, negative = inhibition, actives largely listed as inhibitors; active = well fitted inhibition curve with a large enough effect; inconclusive = small, poorly fitted or top-dose-only effect, or another doubt; inactive = no such curve, though single readings can be large or run the other way;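 note: the enzyme is Sfp with the accession as filed and its product quenches rhodamine fluorescence; potency is the fitted concentration of half-maximal effect; 0% = enzyme reaction without inhibitor and -100% = no enzyme wells; top concentration of the series not given in the record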
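After 15 min at room temperature with compound, 15 nM Sfp received 5 uM rhodamine-CoA plus 12.5 uM BHQ-2-ybbR (50 mM Hepes pH 7.6, 10 mM MgCl2). Rate came from the fluorescence difference over 30 min, ex 525/em 598 nm.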
* hit, by the source's call; ? = inconclusive; . = not tested or not shown; & = joins results of further samples; [ ] = dose if it differs, or a comment.

Under each structure: gsp agonist	D2 ag	gsp antag	Menin MLL FP FL	ClpP mod	PINK1 expr mod	Sfp PPTase inh
- COc1ccc(NC(=S)N(Cc2cccnc2)Cc2ccco2)cc1
→ -0.7%[15.4 µM]	-1.2	4.1%	0.4	.	0.3%	7.1%
- O=C(NCCC(=O)N1CCN(c2ccccc2O)CC1)c1ccc(Br)cc1
→ 1.0%	1.4	1.7%	.	-1.6%	0.4%	.
- CCN1CCN(C(=O)c2cc3nc(-c4ccccc4)cc(C(F)(F)F)n3n2)CC1
→ 1.6%	-3.8	8.9%	-1.8	-5.6%	4.2%[38.3 µM]	11.6%
- CN(CC(=O)Nc1ccc(Cl)cc1)C(=O)CCc1c[nH]c2ccccc12
→ 13.8%[15.4 µM]	-4.4	-29.7%	2.2	-1.5%	9.6%	14.1%
- O=C(N/N=C/c1ccc2c(c1)OCO2)c1cc(-c2ccccc2)nc2ccccc12
→ 9.6%	-4.1	-1.8%	-2.1	-23.6%	1.8%	14.2%
- Clc1ccc(-c2csc3ncnc(N4CCc5ccccc5C4)c23)cc1
→ 1.7%	0.6	6.1%	-0.7	-22.5%	2.6%	6.5%
- Cc1cccc(N2CCN(C(=O)Cc3c(C(=O)O)[nH]c4ccc(Cl)cc34)CC2)c1C
→ 21.9%	-2.0	0.2%	1.4	-6.6%	1.0%	6.1%
- COc1cc(N=c2ssnc2Cl)c(OC)cc1Cl
→ 14.8%&-0.6%	-3.7&-8.1	?	1.2	1.2%&-1.8%	2.3%&-1.2%	10µM*
- CC(C)n1nccc1N(Cc1ccc(Br)cc1)S(=O)(=O)c1ccccc1
→ -13.2%[15.4 µM]	-1.1	?	-3.7	-7.7%	?	3.5%
- CCc1nc2c(OCC(=O)C(C)(C)C)cccn2c1N(C)C(=O)C(C)C
→ .	-2.7	.	.	-3.7%	2.0%	.
- C[C@H]1C=C(C(=O)NCc2nc3ccccc3[nH]2)O[C@@H](OCCCCO)C1
→ ?	3.4	8.4%	.	-3.3%	0.7%	.
- Cc1nc(CCNC(=O)COc2ccccc2)cs1
→ -39.0%[inhibitor]	-1.2	5.1%	2.3	0.5%	0.6%	10.4%
- O=C(NCCO)c1ccc2nc(Cc3cccc(Cl)c3)oc2c1
→ 0.4%	-2.7	4.9%	0.3	1.3%	0.1%	20.7%
- CCCCNc1nc(CC(C)=O)ns1
→ 6.8%	-3.7	-15.5%	0.0	0.5%	-0.7%	-4.6%
- COc1ccc(S(=O)(=O)N2CCC(C(=O)N[C@H](C(=O)N3CCCC3)C(C)C)CC2)cc1
→ 25.6%	-6.4	12.7%	.	-1.0%	0.3%	10.2%

Single records (already shown). Order of values: gsp agonist	D2 ag	gsp antag	Menin MLL FP FL	ClpP mod	PINK1 expr mod	Sfp PPTase inh
Listed for COc1ccc(S(=O)(=O)N2CCC(C(=O)N[C@H](C(=O)N3CCCC3)C(C)C)CC2)cc1 : 25.6%	-6.4	12.7%	.	-1.0%	0.3%	10.2%
Listed for CCCCNc1nc(CC(C)=O)ns1 : 6.8%	-3.7	-15.5%	0.0	0.5%	-0.7%	-4.6%
Listed for C[C@H]1C=C(C(=O)NCc2nc3ccccc3[nH]2)O[C@@H](OCCCCO)C1 : ?	3.4	8.4%	.	-3.3%	0.7%	.
Listed for COc1ccc(NC(=S)N(Cc2cccnc2)Cc2ccco2)cc1 : -0.7%[15.4 µM]	-1.2	4.1%	0.4	.	0.3%	7.1%

Additional compounds follow:
Under each structure: gsp agonist	D2 ag	gsp antag	Menin MLL FP FL	ClpP mod	PINK1 expr mod	Sfp PPTase inh
- O=C(Cn1cc(C(F)(F)F)ccc1=O)N1CCc2ccccc2C1
→ -5.6%	-4.4	19.1%	.	-1.1%	3.1%	.
- COc1ccc(CNC(=O)CN2CCN(S(=O)(=O)c3cccs3)CC2)cc1OC
→ 10.1%	-0.7	3.0%	5.5	0.5%	1.5%	9.0%
- O=c1cc(COn2nnc3ccc(C(F)(F)F)cc32)nc2sccn12
→ -64.3%[inhibitor]	-1.8	13.7%	11.1	1.1%	-0.6%	18.4%
- Cc1ccccc1C(=O)NC(=S)Nc1ncccn1
→ -26.9%	-1.1	-1.6%	3.2	.	1.0%	-22.5%
- O=C1C2CCCN2C(c2ccc(F)cc2)N1c1cccc(Cl)c1 (centres undefined)
→ -84.2%[inhibitor]	-4.7	-7.1%	-2.8	-2.9%	0.6%	17.5%
- Cc1ccc(S(=O)(=O)N2CCOCC2)cc1NC(=O)COc1cccc(Oc2ccccc2)c1
→ -22.7%	-3.6	-15.3%	.	?	2.8%	.
- CCN1CCN(C2=C(Cl)C(=O)N(Cc3ccccc3)C2=O)CC1
→ 29.9%	-3.0	6.6%	3.0	-0.2%	-1.2%	-8.4%
- COc1ccc(C(=O)N2CCN(C3CCC(c4ccccc4)CC3)CC2)cc1OC (centres undefined)
→ -6.3%	-3.4	3.9%	2.6	0.9%	7.8%[38.3 µM]	-25.8%
- Cn1cccc1C(=O)N1CCC2(CCCN(Cc3ccccc3)C2)CC1
→ .	.	.	3.1	.	0.3%	9.8%
- CN1CCC(NC(=O)Cc2c(F)cccc2Cl)CC1
→ -16.7%	-1.7	-15.6%	1.0	-1.5%	-0.6%	-2.7%
- Cc1ccc(C(N)=S)c(C)c1
→ 5.6%	-5.2	4.4%	4.1	-9.0%	1.6%	-2.3%
- Cc1ccc(SCc2c(C(=O)N/N=C/c3ccoc3)nnn2-c2nonc2N)cc1
→ -18.4%	3.7	31.6µM*	-3.0	-0.8%	2.2%	12.0%
- O=C(CCCN1C(=O)/C(=C/c2cccc(Br)c2)SC1=S)Nc1cccnc1
→ -11.7%	9.7	-25.3%	4.7	.	-2.5%	-16.4%
- O=C(c1ccccc1F)N1CCOCC1
→ -101.3%[inhibitor]	-3.8	4.7%	-0.4	0.0%	2.4%	15.9%
- c1cncc(CSc2ccc(-c3cccs3)nn2)c1
→ 16.3%[15.4 µM]	2.3	-64.6%	4.9	.	0.2%	19.8%
- O=c1c2ccccc2nnn1CSc1nnc(-c2cccnc2)n1-c1ccccc1F
→ 6.6%	-8.2	6.1%	-0.7	-4.9%	-1.3%	13.6%
- Cc1ccc(S(=O)(=O)N2CCCCC2)cc1NC(=O)c1ccc2ccccc2n1
→ -19.3%	-2.5	13.1%	13.3	-0.7%	-0.1%	-12.6%
- CC(C)(C)c1ccc(C2/C(=C(\O)c3ccc4c(c3)OCCO4)C(=O)C(=O)N2CCCN2CCOCC2)cc1 (centres undefined)
→ ?	2.9	17.3%	.	1.5%	-0.2%	16.2%
- COc1ccc(C)cc1N(CC(=O)Nc1cccc(N(C)S(C)(=O)=O)c1)S(C)(=O)=O
→ -19.4%	-1.1	-10.0%	0.6	-0.2%	-0.5%[38.3 µM]	18.3%
- CCN(CC(=O)Nc1c(F)cccc1F)C(=O)c1ccc(COc2ccccc2)o1
→ -25.2%	-6.4	-6.1%	.	0.5%	-0.9%	.
- O=C(Oc1c(Br)cc(Br)c2cccnc12)N1CCCCC1
→ 10.8%[15.4 µM]	-3.6	-3.3%	-0.4	.	6.1%	-26.9%
- O=C(CSc1nnc(-c2ccccc2F)n1C1CC1)N1CCCC1
→ -27.2%	-0.6	.	.	0.0%	-0.9%	.
- CCOc1cc(/C=N/NS(=O)(=O)c2ccccc2)ccc1OS(=O)(=O)c1ccc(C)cc1
→ -23.5%	-9.4	-21.4%	2.4	?	-0.7%	8.2%
- CC(=O)NN1C(=O)c2ccccc2NC1c1cccc([N+](=O)[O-])c1 (centres undefined)
→ -5.0%[15.4 µM]	-4.2	2.7%	3.0	0.5%	-0.6%	1.9%
- Cc1nc2scc(-c3ccc(Cl)cc3)c2c(=O)n1N
→ 10.2%[15.4 µM]	0.6	-4.0%	-2.0	.	0.9%	10.0%
- O=C(Nc1ccccc1)C1CCCN1/C=C/C(=O)C(F)(F)F (centres undefined)
→ -20.8%[15.4 µM]	-0.3	6.8%	0.3	14.9%	3.1%	17.7%
- Cc1occc1-c1nnc(SCC(=O)Nc2c(F)cccc2F)n1C
→ -9.8%[15.4 µM]	-0.7	11.9%	.	2.3%	-1.6%	.
- CSc1ccc(/C=C(\C#N)C(=O)NC2CCCCC2C)cc1 (centres undefined)
→ ?	-6.8	10.9%	-5.5	-11.7%	-2.6%	-4.0%
- CCOC(=O)N1CCN(CC(=O)c2c(C)[nH]c3ccccc23)CC1
→ 12.2%	0.1	-1.5%	5.4	1.9%	3.8%	-2.5%
- COCCNC(=O)CSc1nc2cc3c(cc2c(=O)n1CCCC(=O)NCc1ccc(OC)cc1)OCO3
→ -0.2%[15.4 µM]	1.6	5.4%	1.0	-0.9%&-2.8%	0.5%&0.3%	4.1%
- COc1ccc(C(=O)N2N=C(c3ccc(NS(C)(=O)=O)cc3)CC2c2cccs2)cc1 (centres undefined)
→ 2.3%[15.4 µM]	-1.2	-18.6%	10.1	-0.6%	-0.6%	0.1%
- CN(C(=O)c1ccccc1C(=O)OCC(=O)Nc1ccccc1)c1ccccc1
→ -0.2%	-2.1	-3.3%	.	-1.5%	-0.9%	.
- Cc1cn(C2OC(CC(=O)Oc3ccccc3)C(O)C2O)c(=O)[nH]c1=O (centres undefined)
→ -101.7%[inhibitor]	-4.0	-5.8%	.	-0.2%	-0.1%	.
- Nc1c(NCc2ccccc2)c(=O)[nH]c(=O)n1Cc1ccccc1
→ -18.7%	-4.5	6.3%[15.4 µM]	?	-18.1%	-0.3%	?
- COc1ccc(CNC(=O)C(=O)NCC2CCCO2)cc1 (centres undefined)
→ 8.2%	-1.8	18.8%	2.2	0.0%	-1.3%	8.3%
- c1ccc(Oc2cccc3cccnc23)nc1
→ 9.2%[15.4 µM]	-19.4	6.8%	2.2	-1.9%	-1.1%	-0.1%
- CC(C)C(=O)Nc1cccc(C(=O)Nc2ccc3c(c2)OCO3)c1
→ -42.4%[inhibitor]	-0.3	-4.0%	0.4	-4.3%	-1.5%	17.1%

Source: PubChem
